Source: PubChem
Autofluor counter – counter-screen for toxin protease inhibitors: compound fluorescence; compound autofluorescence counterscreen, microsphere flow cytometry; active compounds read high; fluorescence intensity (test concentration not listed); actives 3.1% (n = 360,000);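 active = at least 3 SD above the mean of all compounds, about 16000 in these data; inconclusive = too few beads counted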;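 also: 100 nL of 1 mM stock went into each well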
PrP 5UTR inh – inhibition of PrP 5' UTR reporter expression | cell-based PrP 5' UTR mRNA reporter, plate reader | inhibition, % (concentration not given with the values) | actives 0.35% (n = 340,000) | AID 488862;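 active = every replicate at 50% or more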;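 also: 0 = median of the neutral control wells; tested in H4 reporter cells; numbers are from one replicate; inactives centre near -14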
Sa RN4220 lethal – S. aureus RN4220 growth inhibition. actives 0.33% (n = 330,000). inhibition, % (test concentration not listed). OD600, 16 h;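 active = z-score of -3 or lower and OD600 up to 0.18 on both plates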;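 also: plate controls were untreated cells for no effect and reference antibiotic for full effect; stock transfer was 100 nL into about 80 µL; one replicate is shown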
Mtb hypoxia rep – reduces hypoxia-regulated biosensor signal in M. tuberculosis; M. tuberculosis hypoxia-regulated fluorescent reporter, fluorescence; fluorescence inhibition, % (test concentration not listed); actives 0.1% (n = 300,000); AID 1159583;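 active = 35 to 45% if threefold the growth effect, above 45% if 1.5-fold the growth effect; inactive = the rest, general growth blockers included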;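 also: wells of about 50 µL received 100 nL stock; 0% = vehicle wells and 100% = reference inhibitor wells; whole bacteria with a GFP reporter of the hypoxia response; strong numbers were not always called active; many hits fall short of the cut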
BJeLR viability – kills HRASV12-expressing BJeLR cells | BJeLR (HRASV12) viability, CellTiter-Glo ATP luminescence, 48 h; reference of the scale not given here | inhibition, % (no concentration beside the values) | actives 0.17% (n = 300,000) | AID 1554;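 active = replicate mean above 50%; inconclusive = above 50% but judged a plate artefact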;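 also: 50 nL library stock added to about 25 µL; numbers are from one replicate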
ugtP null kill – kills S. aureus RN4220 lacking UgtP; S. aureus RN4220 ugtP deletion, OD600 growth, 16 h; some inactives read as strong as hits; growth inhibition, % (no concentration beside the values); actives 0.54% (n = 330,000);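 active = z-score under -3 and OD600 up to 0.15 on both plates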;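 also: plate controls were untreated wells for no effect and antibiotic for full effect; wells of about 80 µL received 100 nL stock; the first replicate is given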
Mtb hypoxia rep growth – second read-out of Mtb hypoxia rep, no call of its own (marks repeat the call); growth inhibition, %; measured here: M. tuberculosis growth (absorbance);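 0% = vehicle and 100% = reference antibiotic; read after six days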
Starred values were filed as active, the others as inactive; ? = inconclusive; nt = not tested or not shown; & = joins results of further samples.

SMILES | Autofluor counter | PrP 5UTR inh | Sa RN4220 lethal | Mtb hypoxia rep | Mtb hypoxia rep growth | BJeLR viability | ugtP null kill
CCC(=O)Nc1nc2ccc(NC(=O)COc3ccccc3)cc2s1 | 5592 | -17 | 3.9 | 0 | 3 | 3 | -3
Cc1cc2[nH]c3ccccc3c2cn1 | 4338 | -15 | 2.2 | 9 | 5 | 23 | 1
O=C(/C=C/c1cccc(Cl)c1)NCCc1ccccc1 | 2655 | -40 | -1.6 | 10 | 7 | 7 | 8
Cc1c(NC(=O)C(=O)N/N=C/c2cccs2)c(=O)n(-c2ccccc2)n1C | 5766 | -50 | nt | nt | nt | 2 | nt
Cc1ccc(N2CCN(c3ccc(NC(=O)CCC(=O)O)cc3)CC2)cc1 | 2261 | -4 | 0.5 | 10 | 11 | -1 | 1
O=C(NN=Cc1ccc(-c2ccccc2Cl)o1)c1ccccc1 | nt | nt | -13 | -6 | -2 | nt | -11
COc1ccc(S(=O)(=O)Nc2nc3ccccc3nc2NCc2ccc3c(c2)OCO3)cc1 | 2024 | -9 | 8.7 | 5 | 1 | -9 | -3
CCOc1cc(/C=N\NC(N)=O)cc(Br)c1OC(C)C | 1936 | -4 | nt | nt | nt | 1 | nt
Cc1cccc2cc(C=NNC(=O)CN3CCOCC3)c(Cl)nc12 | nt | nt | -11 | -1 | 4 | nt | -8
CC1=C(Cl)C2=NS(=O)(=O)CCN2C=C1Cl | 3438 | -20 | 4.4 | -11 | -4 | -3 | -6
COc1ccccc1C(=O)N/N=C(\C)CC(=O)Nc1ccc(Nc2ccccc2)cc1 | 5898 | -7 | nt | nt | nt | 7 | nt
O=C(/C=C/c1ccc(F)cc1)NC(=S)N1CCCCC1c1cccnc1 (stereo not drawn) | 4425 | 2 | -1.3 | 7 | -1 | -1 | 3
O=C(NC(Cc1ccccc1)C(=O)O)/C(=C/c1ccccc1)NC(=O)c1ccc(Br)o1 (stereo not drawn) | 4133 | -7 | 0.0 | -7 | -6 | -4 | 8
Cc1cccc(-n2nc(C(=O)c3ccco3)cc(-c3nc4ccccc4[nH]3)c2=N)c1 | 1709 | 6 | -0.7 | 12 | 4 | 5 | 8
CCc1cc2c(N3CCN(c4nnc(CC)s4)CC3)ncnc2s1 | 9664 | 2 | 5.3 | -91 | -4 | 7 | -10
O=C(NC(=S)Nc1cccc(Cl)c1N1CCOCC1)c1cccs1 | 8054 | -13 | -3.7 | 2 | 15 | -19 | 5
O=C(NCC1CCCO1)c1sc(=S)n2c1[nH]c(=O)c1ccc(C(=O)N3CCCCC3)cc12 (stereo not drawn) | 3168 | -29 | 7.8 | 35* | 20* | -3 | 2
Cc1cc(=O)oc2cc(OCc3nnc(-c4ccccc4Br)o3)ccc12 | 4659 | 5 | 8.0 | nt | nt | nt | 5
CCn1ccnc1CN(C)C(=O)C1CCC(=O)N(CCc2cccc(F)c2)C1 (stereo not drawn) | nt | -11 | 0.5 | 10 | -30 | 3 | 6
Cc1ccc2cc(CN(Cc3ccco3)C(=O)c3ccco3)c3nnnn3c2c1 | 6427 | -15 | nt | nt | nt | 10 | nt
O=C(O)CC1=C(O)C(=O)N(c2ccccc2)C1c1ccc(Br)cc1 (stereo not drawn) | 2948 | -7 | -8.8 | 17 | 11 | -11 | -6
COc1cccc(COC(=O)c2cc(S(=O)(=O)N3CCOCC3)ccc2Cl)c1OC | 3860 | -7 | 2.7 | 8 | 4 | nt | 8
O=S(=O)([N-]c1nc2ccccc2nc1-[n+]1ccc(CCCc2ccccc2)cc1)c1cccs1 | 3330 | -8 | 3.8 | 2 | 9 | 7 | 0
CCOc1cc(NCCN2CCOCC2)c([N+](=O)[O-])cc1OCC | 3651 | -22 | 2.3 | 16 | 3 | -4 | 11
O=C1CN(C(=O)COC(=O)/C=C/c2ccc(S(=O)(=O)N3CCOCC3)cc2)c2ccccc2N1 | 4198 | -12 | -1.1 | 14 | 5 | 4 | 2
CCOc1cc2c(cc1OCC)-n1cccc1C(c1ccccc1F)NC2 (stereo not drawn) | 4169 | -26 | 0.9 | 3 | -3 | -10 | -12
CCOC(=O)N1CCN(C(=O)COC(=O)CNC(=O)c2ccc(Cl)cc2Cl)CC1 | ? | -8 | 3.2 | -1 | -1 | -4 | 8
CCc1ccc(OCC(=O)NN2Cc3ccccc3C2=N)cc1 | 4464 | -17 | 1.8 | 3 | 2 | 5 | 5
O=C(NC1=NCCS1)[C@H](Cc1ccccc1)N1C(=O)c2ccccc2C1=O | 10815 | -16 | 7.1 | 4 | 2 | -16 | 1
CC(C)OC(=O)NCCOC(=O)Nc1cccc(Cl)c1 | 4133 | -31 | 2.0 | -7 | -6 | -10 | -23

One compound at a time, from the list above:
CCOC(=O)N1CCN(C(=O)COC(=O)CNC(=O)c2ccc(Cl)cc2Cl)CC1 across the screens: Autofluor counter = ?; PrP 5UTR inh = -8; Sa RN4220 lethal = 3.2; Mtb hypoxia rep = -1; Mtb hypoxia rep growth = -1; BJeLR viability = -4; ugtP null kill = 8
Cc1ccc2cc(CN(Cc3ccco3)C(=O)c3ccco3)c3nnnn3c2c1 across the screens: Autofluor counter = 6427; PrP 5UTR inh = -15; Sa RN4220 lethal = nt; Mtb hypoxia rep = nt; Mtb hypoxia rep growth = nt; BJeLR viability = 10; ugtP null kill = nt

Ordered by SMILES length (falling): 6 of the compounds above.
SMILES | Autofluor counter | PrP 5UTR inh | Sa RN4220 lethal | Mtb hypoxia rep | Mtb hypoxia rep growth | BJeLR viability | ugtP null kill
O=C1CN(C(=O)COC(=O)/C=C/c2ccc(S(=O)(=O)N3CCOCC3)cc2)c2ccccc2N1 | 4198 | -12 | -1.1 | 14 | 5 | 4 | 2
O=C(NCC1CCCO1)c1sc(=S)n2c1[nH]c(=O)c1ccc(C(=O)N3CCCCC3)cc12 (stereo not drawn) | 3168 | -29 | 7.8 | 35* | 20* | -3 | 2
CCOC(=O)N1CCN(C(=O)COC(=O)CNC(=O)c2ccc(Cl)cc2Cl)CC1 | ? | -8 | 3.2 | -1 | -1 | -4 | 8
Cc1cc(=O)oc2cc(OCc3nnc(-c4ccccc4Br)o3)ccc12 | 4659 | 5 | 8.0 | nt | nt | nt | 5
CCOc1cc2c(cc1OCC)-n1cccc1C(c1ccccc1F)NC2 (stereo not drawn) | 4169 | -26 | 0.9 | 3 | -3 | -10 | -12
CC(C)OC(=O)NCCOC(=O)Nc1cccc(Cl)c1 | 4133 | -31 | 2.0 | -7 | -6 | -10 | -23

The results go on.
SMILES | Autofluor counter | PrP 5UTR inh | Sa RN4220 lethal | Mtb hypoxia rep | Mtb hypoxia rep growth | BJeLR viability | ugtP null kill
CC1CN(C(C)CO)C(=O)Cc2cc(NS(=O)(=O)c3ccccc3)ccc2OC1CN(C)Cc1ccc(-c2ccccc2)cc1 (stereo not drawn) | nt | nt | -6.6 | 2 | 1 | nt | -10
C(=NNc1nn2cnnc2c2ccccc12)c1ccco1 | nt | nt | 4.9 | -5 | -2 | nt | 12
O=C(CSc1n[nH]c(-c2ccccc2)n1)Nc1ncc(Br)cc1Br | 2842 | -3 | 29 | 1 | 4 | 7 | -3
COc1ccccc1Nc1nc2nonc2nc1N1CCCCC1C (stereo not drawn) | 2638 | -3 | 0.1 | 2 | 3 | 3 | -12
CCOC(=O)C1=C(CCl)NC(=O)NC1c1ccc2c(c1)OCO2 (stereo not drawn) | nt | -5 | 3.7 | 22 | 11 | 5 | 9
Cc1cc(C)nc(-n2ncc(C#N)c2N)n1 | 2407 | -14 | nt | nt | nt | 3 | nt
O=C(O)CCC(=O)Nc1ccc(Oc2ncnc3cc(Cl)ccc23)nc1 | 3429 | nt | 1.5 | 14 | -4 | -2 | 7
NNC(=O)c1ccccc1-n1cccc1 | 2072 | -24 | 2.2 | -13 | 3 | 0 | 1
C/C(=N\NC(=O)c1ccc(F)cc1)c1ccc(N2CCOCC2)cc1 | 2841 | -33 | nt | nt | nt | -8 | nt
O=C(NC1CC1)C1=COCCO1 | 4355 | -16 | 8.7 | 8 | 11 | -6 | 13
COc1ccc(NC(=O)CCS(=O)(=O)c2cc3c(cc2Cl)NC(=O)CO3)cc1OC | 4471 | 0 | -3.0 | -3 | -2 | 1 | 1
COC(=O)C1=NN(C(C)(C)CC(C)=O)C2C(=O)N(C3CCCCC3)C(=O)C12 (stereo not drawn) | 4326 | -15 | 6.6 | -1 | -6 | -3 | -1
CCCCC(CC)C(=O)Nc1ccccc1C(=O)NC(C)C (stereo not drawn) | 8071 | 4 | 7.5 | 19 | 2 | -1 | -4
CC(C)c1nnc(NC(=O)CCC(=O)Nc2ccc(Cl)cc2)s1 | 5552 | -17 | -3.9 | -10 | -4 | 6 | -5
O=C(c1ccc(NC(=O)C2(c3ccccc3)CCCC2)cc1)N1CCOCC1 | 5406 | nt | 6.8 | nt | nt | -5 | 10
O=C(/C=C/c1c(F)cccc1Cl)Nc1ncccn1 | 2545 | -74 | 4.2 | 10 | 8 | -1 | -3
COc1ccc(OCC(=O)N2CCN(c3nnc(-c4ccc(C)cc4)c4ccccc34)CC2)cc1 | 5053 | -21 | 0.2 | 10 | 5 | -6 | 12
COC1(c2cc(-c3ccccc3)nc(N)n2)CCCCC1 | 11011 | -1 | 3.5 | 9 | 11 | -5 | 6
CN(C)S(=O)(=O)c1cc(NC(=O)c2ccc(-n3ccnc3)c([N+](=O)[O-])c2)ccc1Cl | 5424 | 0 | 1.0 | 8 | 10 | 0 | -1
CC1=C(C(=O)NCc2ccc3c(c2)OCO3)C2(CCC(C)CC2)OC1=O (stereo not drawn) | 5794 | 2 | -14 | 7 | 10 | -6 | 5
CCCCC1CC(C)(C(=O)CSc2nc3ccccc3s2)OC1=O (stereo not drawn) | 4076 | -21 | 8.6 | nt | nt | 4 | 50
COc1cc(/C=C/C(=O)c2ccccc2O)cc(OC)c1OC | 5272 | 6 | 0.7 | nt | nt | -3 | 6
O=c1ccc2c(o1)/C(=C/C=C(Cl)Cl)CCC2 | 2097 | -4 | 2.0 | nt | nt | -1 | 7
O=c1[nH]c(=O)n(Cc2ccccc2)c(O)c1C=NCCCn1ccnc1 | 2209 | -4 | 2.1 | -3 | -7 | -5 | 6
O=C(CCC(=O)OCc1ccc(Cl)cc1)Nc1cccc([N+](=O)[O-])c1 | 9527 | -26 | 7.6 | 8 | 8 | 5 | -4
Cc1nn(C)c(C)c1C1C(C#N)=C(N)OC2=C1C(=O)CC(C)(C)C2 (stereo not drawn) | 2075 | -6 | nt | nt | nt | -1 | nt
Cc1nc(SCC(=O)c2ccc(F)cc2)c([N+](=O)[O-])[nH]1 | 2519 | -24 | -6.9 | 4 | 12 | 4 | 0
Cn1ccnc1Sc1cc(Cl)ccc1[N+](=O)[O-] | 2640 | -30 | 8.2 | 11 | -5 | 0 | 7
CNC(=C[N+](=O)[O-])NCCSCc1ccc(CN(C)C)o1 | nt | nt | 2.5&8.0 | 4&7 | 4&2 | nt | -1&2
COn1c(=O)c(-c2ccccc2)[n+]([O-])c2ccccc21 | 3837 | -20 | 1.2 | 6 | -9 | -6 | 7
O=C(Cc1cccc(C(F)(F)F)c1)Nc1ccc(S(=O)(=O)N2CCCC2)cc1 | 5746 | 1 | -2.9 | 10 | 11 | -3 | -10
C=CCc1cccc2cc(C(=O)N3CCN(C(=O)OCC)CC3)c(=O)oc12 | 19208* | -25 | 8.3 | 4 | 20 | 12 | -12
c1ccc(CNC2=NCCCC2)cc1 | 3801 | -9 | 0.7 | nt | nt | -7 | 7
Cc1cc(C)c2c(N)c(C(=O)Nc3ccccc3Cl)sc2n1 | nt | nt | 2.7 | 13 | 15 | -7 | 1
O=C(c1ccco1)N1CCN(C(=O)c2ccc(CS(=O)c3ccc(Cl)cc3)o2)CC1 (stereo not drawn) | 4513 | -23 | 2.7 | 0 | -5 | -18 | 6
CN1CCN(S(=O)(=O)c2cccc(C(=O)N(C)CC(=O)Nc3ccc(Cl)c(Cl)c3)c2)CC1 | 2858 | -13 | 4.3 | 9 | 6 | nt | 2
O=C(Nc1cccc(C(F)(F)F)c1)c1cccnc1 | 15790 | -10 | 0.4 | 8 | 4 | nt | 2
CCN(CC)C(=O)c1cc2sc3ccccc3c2s1 | 2934 | -95 | -7.2 | 15 | 11 | -11 | -4
COc1ccc(O)c(C2NC(CC(C)C)(C(=O)O)C3C(=O)N(Cc4ccccc4)C(=O)C23)c1 (stereo not drawn) | 16430* | 0 | -1.4 | 4 | 1 | -3 | -2
